# BJeLR viab HTS – BJeLR cell viability reduction; BJeLR fibroblasts viability, CellTiterGlo ATP luminescence, 48 h; HRASV12, hTERT and SV40 LT/ST transformed; viability loss activity score, % (test concentration not listed); 30,000 tested, 0.64% active; AID 2275; in the data active means viability loss activity score above about 50%; about a fifth of its hits are not listed in these tables;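 further: higher score means fewer live cells and less ATP luminescence; stock transfer was 50 or 100 nL into about 30 µL; 0% = vehicle wells and 100% = a reference killing control; one replicate is shown; the record names a cut of 85%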
# A1 inhib – blocks A1 activity; MEF A1-2A-BIM cells, caspase-Glo luminescence, 3 h; percent of clofoctol signal, DMSO as zero; caspase activation, % (no concentration beside the values); 21,000 tested, 0.51% active;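 active means most replicate scores above 10, or exactly half above 10 with mean activity above 10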;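 further: effector caspase 3 and 7 activity cleaving a DEVD luciferin substrate; 50 nL library stock added to about 30 µL; numbers are from one replicate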
# Numbers without * were called inactive; / = not tested or not shown.
# Values in the order: BJeLR viab HTS, A1 inhib
- CCc1ccc(C2C(C#N)=C(N)N(N3CCOCC3)C3=C2C(=O)CC(C)(C)C3)cc1 (stereo not given)
    1.7, 0.8
- O=C(CSc1nc2ccccc2s1)NCCC12CC3CC(CC(C3)C1)C2
    4.1, 0.6
- C[C@H]1CN([C@@H](C)CO)C(=O)c2cc(NS(=O)(=O)c3cccs3)ccc2O[C@@H]1CN(C)S(=O)(=O)c1ccc(F)cc1
    2.0, 0.2
- Cc1cc(C)n2nc(-c3ccc(C(C)(C)C)cc3)cc2n1
    -2.2, -1.3
- CCOC(=O)c1cc(S(=O)(=O)N(C)Cc2ccccc2)cn1C
    1.1, 0.5
- Cc1ccc(S(=O)(=O)Nc2cccc3ccccc23)cc1
    0.6, 1.7
- CSc1nc2cc(Oc3ccc4ccccc4c3)c(Cl)cc2[nH]1
    1.1, -0.9
- C[C@H](CO)N1C[C@H](C)[C@@H](CN(C)Cc2ccc(-c3ccccc3)cc2)Oc2c(NS(=O)(=O)c3cn(C)cn3)cccc2C1=O
    -5.4, /
- C[C@H]1CN([C@@H](C)CO)C(=O)c2cccc(NC(=O)C3CCCCC3)c2O[C@H]1CN(C)Cc1ccc(Oc2ccccc2)cc1
    -0.3, /
- CCn1c(=O)c2cc(C(=O)N(C)CC(OC)OC)sc2c2ccccc21
    3.3, /
- COc1cccc(C2C3=C(CC(C)(C)CC3=O)Nc3ccccc3N2C(C)=O)c1 (stereo not given)
    1.0, -0.1
- O=c1[nH]cnc2ccc(NC(=S)NC3CC3)cc12
    -5.7, 0.8
- C[C@@H]1CN([C@H](C)CO)C(=O)c2cc(NC(=O)Nc3ccc4c(c3)OCO4)ccc2O[C@H]1CN(C)C(=O)NC1CCCCC1
    -1.8, 0.1
- COc1ccc(CN(C)C[C@@H]2Oc3ccc(NC(=O)Nc4c(C)noc4C)cc3C(=O)N([C@H](C)CO)C[C@@H]2C)cc1
    0.4, 0.8
- C=CCNS(=O)(=O)c1ccc(C)cc1
    5.7, 0.7
- C[C@@H]1CN([C@H](C)CO)C(=O)c2cc(NC(=O)Cn3cnnn3)ccc2O[C@H]1CN(C)C(=O)NC1CCCCC1
    4.1, -0.2
- Cc1ccccc1Cn1c(Cc2ccccc2)nc2ccccc21
    5.8, 0.4
- O=C(Cn1cccc1C(=O)c1ccccc1)NCc1ccccn1
    -1.0, 1.1
- C[C@@H]1CN([C@@H](C)CO)C(=O)c2cc(NC(=O)Nc3ccccc3)ccc2O[C@H]1CN(C)S(=O)(=O)c1ccccc1
    3.2, -0.4
- COc1ccc(-n2nc(C(=O)NCC(=O)NC3CCCC(C)C3C)c3ccccc3c2=O)cc1 (stereo not given)
    -0.9, /
- C[C@H](CO)N1C[C@H](C)[C@@H](CN(C)S(=O)(=O)c2ccccc2)Oc2ccc(NC(=O)Nc3ccc(C(F)(F)F)cc3)cc2C1=O
    15.1, -0.3
- COc1ccc(NC(=O)Nc2ccc3c(c2)C(=O)N([C@H](C)CO)C[C@H](C)[C@H](CN(C)Cc2ccc(C(=O)Nc4ccccc4N)cc2)O3)cc1
    7.9, /
- Cc1noc(C)c1NC(=O)Nc1cccc2c1O[C@@H](CN(C)S(=O)(=O)c1ccccc1)[C@@H](C)CN([C@@H](C)CO)C2=O
    1.7, /
- CC(C)NC(=O)N(C)C[C@H]1Oc2ccc(N(C)C)cc2C(=O)N([C@@H](C)CO)C[C@@H]1C
    1.9, 0.1
- COc1c(OC)c(O)c2c(=O)c(O)c(-c3ccccc3)oc2c1OC
    -0.3, 1.4
- COc1ccc(NC(=O)N(C)C[C@@H]2Oc3c(NC(=O)NC(C)C)cccc3C(=O)N([C@H](C)CO)C[C@@H]2C)cc1
    -4.3, /
- CSc1nc2ccc3nc(NC(=O)c4ccccc4C)sc3c2s1
    3.7, -2.1
- CCn1nc(C)c(Br)c1C(=O)Oc1ccc(Cl)cc1
    -7.1, 0.1
- COc1ccc(-c2cc(C(F)(F)F)nc(SCC(=O)N3CCCCCC3)n2)cc1OC
    -0.6, -1.2
- O=S(=O)(c1ccc(-c2ccon2)s1)N(Cc1ccccn1)Cc1ccccn1
    0.8, 0.8

# Molecules listed so far with a CF3 group, in the order listed:
# Values in the order: BJeLR viab HTS, A1 inhib
- C[C@H](CO)N1C[C@H](C)[C@@H](CN(C)S(=O)(=O)c2ccccc2)Oc2ccc(NC(=O)Nc3ccc(C(F)(F)F)cc3)cc2C1=O
    15.1, -0.3
- COc1ccc(-c2cc(C(F)(F)F)nc(SCC(=O)N3CCCCCC3)n2)cc1OC
    -0.6, -1.2

# The listing picks up, starting 2 compounds before the break.
# Values in the order: BJeLR viab HTS, A1 inhib
- COc1ccc(-c2cc(C(F)(F)F)nc(SCC(=O)N3CCCCCC3)n2)cc1OC
    -0.6, -1.2
- O=S(=O)(c1ccc(-c2ccon2)s1)N(Cc1ccccn1)Cc1ccccn1
    0.8, 0.8
- CC(C)n1cnc2c(NCc3ccccc3)nc(NCCCO)nc21
    -4.2, 0.3
- C[C@H](CO)N1C[C@H](C)[C@H](CN(C)C(=O)Nc2ccc(C(F)(F)F)cc2)Oc2c(NC(=O)NC3CCCCC3)cccc2C1=O
    -4.2, /
- COc1ccc(NC(=O)N(C)C[C@H]2Oc3c(NC(=O)c4cc(C)nn4C)cccc3C(=O)N([C@H](C)CO)C[C@@H]2C)cc1
    -2.2, /
- CCN(Cc1ccccc1)C(=O)Cn1ncc2c3ccccc3n(Cc3c(C)cc(C)cc3C)c2c1=O
    10.4, 0.8
- CC(C)(C)c1ccc(-c2nc(=O)[nH]n2-c2ccccc2)cc1
    -1.7, 0.8
- COc1ccc(NC(=O)N(C)C[C@@H]2Oc3c(NC(=O)C4CCCCC4)cccc3C(=O)N([C@@H](C)CO)C[C@@H]2C)cc1
    0.1, /
- Cc1ccc(N2C(=O)N(CC(=O)Nc3ccccc3)c3ccccc3S2(=O)=O)cc1Cl
    -2.6, 0.2
- CCC1C/C(=C\c2sccc2C)C(=O)/C(=C/c2sccc2C)C1 (stereo not given)
    2.2, /
- CCC(C)C(O)(CC(=O)OCc1ccc(O[C@@H]2O[C@H](CO)[C@@H](O)[C@H](O)[C@H]2O)cc1)C(=O)OCc1ccc(O[C@@H]2O[C@H](CO)[C@@H](O)[C@H](O)[C@H]2O)cc1 (stereo not given in full)
    -2.6, -1.1
- Cc1ccc(S(=O)(=O)N(C)C[C@H]2Oc3c(NC(=O)C4CCCCC4)cccc3C(=O)N([C@@H](C)CO)C[C@H]2C)cc1
    -3.5, /
- CCN(CC)c1ccc2c(C)cc(=O)oc2c1
    0.3, -0.6
- CCC(C)C(O)C(C)(O)/C=C/C1=CC2=C(Cl)C(=O)C(C)(O)C(OC(C)=O)C2CO1 (stereo not given)
    -3.4, -1.1
- C[C@@H]1CN([C@H](C)CO)C(=O)c2cc(NC(=O)Cc3ccccc3)ccc2O[C@H]1CN(C)Cc1ccc(C(=O)O)cc1
    -2.3, 0.3
- C[C@H]1CN([C@@H](C)CO)C(=O)c2cc(NC(=O)Nc3ccc4c(c3)OCO4)ccc2O[C@@H]1CN(C)Cc1ccc2c(c1)OCO2
    -0.9, 0.1
- O=C(C(C(=O)N1CCCCC1)C12CC3CC(CC(C3)C1)C2)N1CCCCC1
    -2.9, 0.4
- Cc1ccc(S(=O)(=O)N(C)C[C@@H]2Oc3c(NC(=O)Nc4c(C)noc4C)cccc3C(=O)N([C@@H](C)CO)C[C@H]2C)cc1
    2.9, /
- CC(C)(C)c1cc(NC(=O)CSc2n[nH]c(=O)n2-c2ccc3c(c2)OCCO3)cc(C(C)(C)C)c1
    -6.4, -0.3
- Cn1c(=O)c2c(O)c(C=NCc3ccccc3)c(=O)n(C)c2n(C)c1=O
    -2.5, 0.3
- COc1cccc(-c2cc(C(=O)NC(C)C)no2)c1
    -1.4, /
- O=S(=O)(c1ccccc1)N(Cc1ccccc1)c1ccccn1
    1.6, 0.5
- CC1O[C@@H](Oc2c(-c3ccc(O)c(O)c3)oc3cc(O)cc(O)c3c2=O)[C@H](O)[C@H](O)[C@H]1O (stereo not given in full)
    8.0, -0.8
- COc1ccc(CN(C)C[C@H]2Oc3ccc(NC(=O)Cn4cnnn4)cc3C(=O)N([C@H](C)CO)C[C@@H]2C)cc1
    2.3, 0.8
- Cc1noc(C)c1S(=O)(=O)Nc1ccc2c(c1)C(=O)N([C@H](C)CO)C[C@H](C)[C@@H](CN(C)C)O2
    -1.2, 0.4
- Cc1ccc(S(=O)(=O)N(C)C[C@@H]2Oc3c(NS(=O)(=O)c4cccs4)cccc3C(=O)N([C@@H](C)CO)C[C@H]2C)cc1
    0.2, /
- CC(CCc1ccccc1)NC(=O)C1=CCN(S(=O)(=O)c2ccc(F)cc2)CC1 (stereo not given)
    8.8, 0.7
- Cc1ccc(Cn2c3ccccc3c3cn[nH]c(=O)c32)cc1
    1.8, -0.4
- Cc1ccc2oc(=O)c3cc(C(=O)N4CCN(c5ccc(F)cc5)CC4)sc3c2c1
    -4.6, /
- CCOc1ccc(S(=O)(=O)N2CCCCC2)cc1-c1nc2c(C(C)(C)C)nn(C)c2c(=O)[nH]1
    -3.0, -1.4
- COc1ccc(S(=O)(=O)N(C)C[C@H]2Oc3c(NS(=O)(=O)c4ccc(F)cc4)cccc3C(=O)N([C@H](C)CO)C[C@@H]2C)cc1
    -7.8, /
- O=C(C1c2ccccc2C(=O)N2CCc3ccccc3C12)N1CCCC1 (stereo not given)
    2.0, /

# Later entries.
# Values in the order: BJeLR viab HTS, A1 inhib
- COc1ccc(Cl)cc1C(=O)N1CCCC1C(=O)OCc1ccccc1 (stereo not given)
    -3.7, 0.3
- C[C@@H]1CN([C@H](C)CO)C(=O)c2cccc(NS(C)(=O)=O)c2O[C@@H]1CN(C)Cc1ccc(Oc2ccccc2)cc1
    1.6, /
- C[C@@H]1CN([C@@H](C)CO)C(=O)c2cc(NC(=O)Cn3cnnn3)ccc2O[C@H]1CN(C)C(=O)Nc1ccc(F)cc1
    7.0, 0.6
- C[C@H]1CN([C@@H](C)CO)C(=O)c2cc(NC(=O)c3ccncc3)ccc2O[C@@H]1CN(C)Cc1ccc(C(F)(F)F)cc1
    -1.3, 0.4
- COc1ccc(CN(C)C[C@@H]2Oc3c(NS(=O)(=O)c4cn(C)cn4)cccc3C(=O)N([C@@H](C)CO)C[C@H]2C)cc1
    -10.9, /
- C[C@H](CO)N1C[C@H](C)[C@H](CN(C)C)Oc2c(NC(=O)Nc3ccc(C(F)(F)F)cc3)cccc2C1=O
    -1.3, /
- C[C@@H]1CN([C@H](C)CO)C(=O)c2cc(NC(=O)c3ccncc3)ccc2O[C@@H]1CN(C)Cc1ccc2c(c1)OCO2
    -2.3, -0.1
- C[C@@H]1CN([C@H](C)CO)C(=O)c2cc(NS(=O)(=O)c3cccs3)ccc2O[C@@H]1CN(C)Cc1ccc(Cl)c(Cl)c1
    -2.7, -0.5
- COc1ccc(CN(C)C[C@@H]2Oc3ccc(NC(=O)C4CCCCC4)cc3C(=O)N([C@@H](C)CO)C[C@H]2C)cc1
    -2.1, 0.7
- O=C(c1cncc(NS(=O)(=O)c2ccc(Cl)cc2)c1)N1CCN(Cc2ccccc2)CC1
    -0.2, -0.1
- N#Cc1c(Nc2ccccc2)s[nH]c1=O
    3.1, -0.9
- CNC[C@H]1Oc2ccc(NS(=O)(=O)c3ccc(C)cc3)cc2C(=O)N([C@H](C)CO)C[C@@H]1C
    2.4, 0.1
- COc1ccc(NC(=O)Nc2cccc3c2O[C@H](CN(C)Cc2ccc4c(c2)OCO4)[C@@H](C)CN([C@H](C)CO)C3=O)cc1
    -3.3, /
- C[C@H](CO)N1C[C@H](C)[C@@H](CN(C)S(=O)(=O)c2ccc(F)cc2)Oc2ccc(NS(=O)(=O)c3ccc(Cl)cc3)cc2C1=O
    -0.9, 0.1
- C[C@H]1CN([C@@H](C)CO)C(=O)c2cccc(NS(=O)(=O)c3ccc(Cl)cc3)c2O[C@H]1CN(C)Cc1ccc(-c2ccccc2)cc1
    -1.6, /
- NC(=O)C1CCN(C(=O)/C(=C/c2ccco2)NC(=O)c2ccccc2)CC1
    0.9, 1.0
- CCC(Sc1nc2c(cc1C#N)CCCCC2)C(=O)Nc1cc(C)on1 (stereo not given)
    -5.6, -0.4
- CN(C)c1ccc(CNc2ccc3c(c2)ncn3-c2ccccc2)cc1
    -2.1, /
- C[C@H]1CN([C@@H](C)CO)C(=O)c2cc(N(C)C)ccc2O[C@@H]1CN(C)S(=O)(=O)c1ccc(F)cc1
    1.4, -0.5
- C/C=C(\CO)C(=O)O[C@H]1[C@H](O)[C@@H](C(=O)OC)O[C@@H]2C[C@H]3OC(n4cnc5c(N)ncnc54)[C@H](OC)[C@H]3O[C@]21O (stereo not given in full)
    8.0, -0.3
- C[C@H](CO)N1C[C@H](C)[C@@H](CN(C)C(=O)Nc2ccc3c(c2)OCO3)Oc2c(NS(=O)(=O)c3cn(C)cn3)cccc2C1=O
    -0.3, /
- Cc1ccc2nc(NCc3cccnc3)c(C=NCc3cccnc3)c(=O)n2c1
    -4.4, 0.6
- CCCCc1ccc(-n2c(-c3ccc(F)cc3)coc2=O)cc1
    5.7, -0.2
- C[C@@H]1CN([C@@H](C)CO)C(=O)c2cc(NS(=O)(=O)c3ccc(F)cc3)ccc2O[C@@H]1CN(C)Cc1ccc(Oc2ccccc2)cc1
    2.4, 0.5
- COC(=O)c1ccc(C2C3=C(CC(C)(C)CC3=O)Nc3ccccc3N2C(=O)C(C)C)cc1 (stereo not given)
    0.4, 0.1
- CCN=C1S/C(=C/c2ccc(OCC(=O)O)c(Cl)c2)C(=O)N1CC
    -3.2, -0.6

# These rows are one share of the data; count on the stated rates, not on these rows.
